Vaccinia stage: Vaccinia orthopox stage-specific inhibition; Vaccinia-infected cells, mCherry/Venus stage reporter fluorescence; stronger effect = lower value; some inactives read as strong as hits; activity change (mCherry), % (no concentration beside the values); 0.01% of 89,000 active;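 active = mCherry past -33% and 40 or more points under the early reporter, replicates agreeing; inconclusive = past -33% without that gap or agreement; tested in A549 cells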;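 also: scaled between vehicle wells and reference inhibitor wells; 23 nL library stock went into each well; one replicate is shown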
Vaccinia stage Venus: further read-out of Vaccinia stage, marked with its call; activity change (Venus), %; measured here: Venus reporter, other viral stage;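 negative = less Venus signal; first of two replicates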
* = called active by the depositor; ? = inconclusive; . = not tested or not shown. Only part of the results is shown; the hit share may differ from the screen's.

SMILES	Vaccinia stage	Vaccinia stage Venus
CO[C@@H]1CN(C)C(=O)c2cc(NC(=O)C3CC3)ccc2OC[C@H](C)N(Cc2cncnc2)C[C@H]1C	15	11
CNC[C@@H]1Oc2ccc(N(C)C)cc2CC(=O)N([C@H](C)CO)C[C@@H]1C	8	2
C[C@H]1CN([C@@H](C)CO)C(=O)Cc2cc(NS(=O)(=O)c3cccs3)ccc2O[C@@H]1CN(C)CC1CCCCC1	-30	-30
C[C@@H]1CCCCO[C@H](CN(C)Cc2ccc3c(c2)OCO3)[C@@H](C)CN([C@@H](C)CO)C(=O)c2cc(NC(=O)Nc3ccccc3)ccc2O1	?	.
CN(C)CC#Cc1ccc([C@H]2[C@@H](CO)N3CCCCN(C(=O)Cc4ccccn4)C[C@H]23)cc1	18	20
CO[C@@H]1CN(C)C(=O)c2cc(NC(=O)c3ccccc3)ccc2OC[C@@H](C)N(C(C)=O)C[C@@H]1C	6	12
Cc1ccc(S(=O)(=O)N[C@H]2CC[C@H](CCn3cc(-c4ccccc4F)nn3)O[C@@H]2CO)cc1	?	.
COc1ccc(NC(=O)Nc2ccc3c(c2)C(=O)N([C@@H](C)CO)C[C@H](C)[C@@H](CN(C)S(=O)(=O)c2cccs2)OCCCC[C@H](C)O3)cc1	-3	4
COc1ccccc1NC(=O)N[C@H]1CC[C@@H](CCn2cc(-c3ccccc3)nn2)O[C@H]1CO	-1	-6
CN(C)C(=O)C[C@H]1C=C[C@@H](NC(=O)C2CCC2)[C@H](CO)O1	-2	-2
C/C(=C\c1ccccc1)C(=O)N1CCC=CC1=O	-10	-10
O=C(N[C@@H]1CC[C@@H](CCn2cc(C3(O)CCCC3)nn2)O[C@H]1CO)C1CCCCC1	4	-3
COCCNC(=O)C[C@H]1C[C@@H]2c3cc(NC(=O)Nc4ccc(OC)cc4)ccc3O[C@@H]2[C@@H](CO)O1	0	-2
CO[C@H]1CN(C)C(=O)c2cccc(C#N)c2OCC[C@@H]2CC[C@@H](OC)[C@H](CN(C)C(=O)[C@@H]1C)O2	12	7
CCCC(=O)Nc1ccc2c(c1)OC[C@@H](C)N(C(C)=O)C[C@@H](C)[C@H](OC)CN(C)C2=O	-7	-6
C[C@@H]1CCCCO[C@H](CN(C)Cc2ccc(Cl)c(Cl)c2)[C@@H](C)CN([C@@H](C)CO)C(=O)c2cc(NC(=O)Cc3ccccc3)ccc2O1	?	.
COc1ccc2c3c([nH]c2c1)[C@@H](CO)N(C(=O)Nc1c(C)noc1C)CC31CN(CC2CCOCC2)C1	2	2
CC(C)NC(=O)Nc1cccc2c1O[C@@H](CN(C)S(=O)(=O)c1ccc(Cl)cc1)[C@@H](C)CN([C@@H](C)CO)C2=O	-32	-26
CCC(=O)N1[C@@H]2Cn3c(cccc3=O)[C@H]1[C@@H](C(=O)N1CCc3ccccc3C1)[C@@H]2CO	15	5
C[C@H](CO)N1C[C@H](C)[C@@H](CN(C)S(C)(=O)=O)OCCCC[C@H](C)Oc2ccc(NC(=O)CCCN(C)C)cc2C1=O	11	0
O=C(C[C@@H]1C=C[C@@H](NC(=O)Cc2cccnc2)[C@H](CO)O1)Nc1ccc(-c2ccccc2)cc1	-2	-12
COc1cccc(-c2cnc3c(c2)C(=O)N([C@H](C)CO)C[C@@H](C)[C@@H](CN(C)C(=O)Nc2ccccc2F)O3)c1	-3	-1
O=C(N[C@@H]1CC[C@H](CCNS(=O)(=O)c2ccc(F)cc2)O[C@@H]1CO)C1CCC1	18	9
O=C(c1cccc(F)c1)N1C[C@H]2[C@@H](c3ccccc31)[C@@H](CO)N2C(=O)c1ccccn1	14	2
C[C@@H]1CN([C@@H](C)CO)S(=O)(=O)c2ccc(C#CC3CC3)cc2O[C@H]1CN(C)C(=O)c1ccccc1	-28	-15
CCCc1cn(CC[C@H]2CC[C@@H](NS(=O)(=O)c3ccc(-c4ccccc4)cc3)[C@@H](CO)O2)nn1	-35	-23
COc1ccc(S(=O)(=O)Nc2ccc3c(c2)C(=O)N([C@@H](C)CO)C[C@@H](C)[C@@H](CN(C)C(=O)NC(C)C)OCCCC[C@@H](C)O3)cc1	13	11
COc1ccc(S(=O)(=O)N(C)C[C@@H]2OCCCC[C@@H](C)Oc3ccc(NS(=O)(=O)c4cn(C)cn4)cc3C(=O)N([C@H](C)CO)C[C@@H]2C)cc1	41	10
Cc1cccc(-c2ccc([C@H]3[C@@H](CO)N4C(=O)CN(C(=O)c5cccnc5)C[C@@H]34)cc2)c1	-2	1
CCCC(=O)Nc1ccc2c(c1)C(=O)N(C)C[C@@H](OC)[C@H](C)CN(C(=O)CN(C)C)[C@@H](C)CO2	-3	-11
CC=Cc1ccc2n(c1=O)C[C@H]1[C@H](CO)[C@@H](C(=O)N3CCCCC3)N(Cc3ccccn3)[C@@H]21 (mixture of isomers)	10	33
COc1ccc(CN(C)C[C@H]2Oc3ccc(NS(C)(=O)=O)cc3C(=O)N([C@@H](C)CO)C[C@@H]2C)cc1	21	5
CCCNC(=O)N(C)C[C@@H]1Oc2cc(-c3cncnc3)ccc2S(=O)(=O)N([C@@H](C)CO)C[C@@H]1C	19	1
Cc1ccc(S(=O)(=O)Nc2ccc3c(c2)C(=O)N([C@@H](C)CO)C[C@H](C)[C@@H](CN(C)Cc2ccc(-c4ccccc4)cc2)O3)cc1	-12	-4
COc1ccc(CN(C)C[C@@H]2Oc3ccc(NS(=O)(=O)c4ccccc4)cc3CC(=O)N([C@@H](C)CO)C[C@@H]2C)cc1	-4	-9
COCC(=O)Nc1ccc2c(c1)C(=O)N(C)[C@@H]1CC[C@@H](CC(=O)NCc3ccccc3)O[C@@H]1CO2	7	6
C[C@@H]1CN([C@@H](C)CO)C(=O)Cc2cc(NC(=O)Nc3ccc(C(F)(F)F)cc3)ccc2O[C@H]1CN(C)S(=O)(=O)c1ccc(Cl)cc1	-32	-12
CO[C@@H]1CN(C)C(=O)c2ccc(NC(=O)C3CC3)cc2OC[C@H](C)N(C(=O)CN2CCOCC2)C[C@H]1C	-2	-3
COc1ccc(S(=O)(=O)Nc2ccc3c(c2)C(=O)N([C@H](C)CO)C[C@@H](C)[C@@H](CN(C)S(=O)(=O)c2ccc(C)cc2)O3)cc1	-23	-16
C[C@@H]1CN([C@H](C)CO)C(=O)c2cccc(NC(=O)c3nc4ccccc4s3)c2O[C@@H]1CN(C)Cc1ccncc1	-11	-11
C[C@@H]1CN([C@H](C)CO)S(=O)(=O)c2ccc(C#Cc3ccccc3)cc2O[C@@H]1CN(C)S(C)(=O)=O	?	.
O=C(C[C@@H]1CC[C@@H]2[C@H](COC[C@@H](O)CN2Cc2cccc(Cl)c2)O1)NCc1cccc(F)c1	-23	-25
C[C@H](CO)N1C[C@H](C)[C@H](CN(C)C(=O)C2CCOCC2)Oc2ncc(-c3ccccc3F)cc2C1=O	8	6
C[C@H]1CN([C@@H](C)CO)C(=O)Cc2cc(NC(=O)Cc3cn(C)c4ccccc34)ccc2O[C@@H]1CN(C)S(=O)(=O)c1ccc(F)cc1	6	-1
C[C@@H]1CN([C@H](C)CO)C(=O)c2cccc(NC(=O)CCCCCC(=O)Nc3ccccc3N)c2O[C@H]1CN(C)C	10	18
CO[C@H]1CN(C)C(=O)c2ccc(NC(=O)Nc3c(C)noc3C)cc2OC[C@H](C)N(CC2CC2)C[C@@H]1C	3	7
C[C@H]1CN([C@@H](C)CO)C(=O)c2cc(C3=CCCCC3)cnc2O[C@@H]1CN(C)Cc1cccc(F)c1	-21	-15
C[C@H](CO)N1C[C@H](C)[C@H](CN(C)C)Oc2c(NS(=O)(=O)c3cn(C)cn3)cccc2C1=O	3	3
COc1cccc(C#Cc2cnc3c(c2)C(=O)N([C@@H](C)CO)C[C@@H](C)[C@H](CN(C)C(=O)C2CCC2)O3)c1	-30	-33
CN(C)C(=O)C[C@@H]1CC[C@H]2[C@H](COc3ccc(NC(=O)C4CCCCC4)cc3C(=O)N2C)O1	11	14
CO[C@H]1CN(C)C(=O)c2cc(NC(=O)Nc3c(C)noc3C)ccc2OC[C@H](C)N(C)C[C@@H]1C	6	4
COc1cccc(NC(=O)N2CC(=O)N3[C@@H](CO)[C@@H](c4ccc(C#CCC5CCCC5)cc4)[C@@H]3C2)c1	-32	-20
C[C@H](CO)N1C[C@H](C)[C@@H](CN(C)S(=O)(=O)c2ccc(Cl)cc2)Oc2ccc(NS(=O)(=O)c3ccc(Cl)cc3)cc2CC1=O	-27	-18
CC=Cc1ccc2n(c1=O)C[C@@H]1[C@@H](CO)[C@H](C(=O)NCc3ccc(F)cc3)N(CC)[C@H]21 (mixture of isomers)	14	11
C[C@@H]1CN([C@@H](C)CO)C(=O)c2cccc(NC(=O)C3CCOCC3)c2O[C@H]1CN(C)Cc1ccc(C(=O)Nc2ccccc2N)cc1	9	8
C[C@@H]1CN([C@H](C)CO)C(=O)c2cc(NC(=O)Nc3ccc(C(F)(F)F)cc3)ccc2O[C@@H](C)CCCCO[C@H]1CN(C)Cc1ccc2c(c1)OCO2	?	.
C[C@H](CO)N1C[C@H](C)[C@H](CN(C)CC2CCCCC2)Oc2ccc(NS(=O)(=O)c3ccc(Cl)cc3)cc2C1=O	-2	-4
C[C@H](CO)N1C[C@H](C)[C@H](CN(C)Cc2ccc(C(=O)Nc3ccccc3N)cc2)Oc2c(NC(=O)c3ccc(-c4nccs4)cc3)cccc2C1=O	-23	-1
COc1ccc(CN(C)C[C@H]2Oc3c(NS(=O)(=O)c4cn(C)cn4)cccc3C(=O)N([C@H](C)CO)C[C@@H]2C)cc1	13	14
COCC(=O)N[C@H]1CC[C@@H](CC(=O)NCc2ccccc2OC)O[C@H]1CO	-8	6
Going on with the list.
SMILES	Vaccinia stage	Vaccinia stage Venus
O=C(Nc1ccccc1)C1=C[C@H](C2CC2)C[C@H](OCCCCO)O1	12	12
C[C@@H]1CN([C@H](C)CO)C(=O)Cc2cc(NC(=O)Nc3ccccc3)ccc2O[C@H]1CN(C)S(=O)(=O)c1cccs1	11	17
C[C@@H]1CN([C@H](C)CO)C(=O)c2cc(NC(=O)Nc3ccc(C(F)(F)F)cc3)ccc2O[C@@H]1CN(C)C(=O)NC1CCCCC1	-29	-19
N#C[C@@H]1[C@@H](c2ccc(-c3cccc(F)c3)cc2)[C@@H](CO)N1C(=O)NC1CCCCC1	?	.
Cc1ccc(S(=O)(=O)N[C@@H]2C=C[C@@H](CC(=O)NCc3ccncn3)O[C@H]2CO)cc1	1	6
Cc1ccc(S(=O)(=O)Nc2ccc3c(c2)C(=O)N([C@H](C)CO)C[C@H](C)[C@H](CN(C)C(=O)Nc2ccc(C(F)(F)F)cc2)O3)cc1	4	-5
C[C@@H]1CN([C@@H](C)CO)C(=O)c2cc(NC(=O)Cc3ccccc3)ccc2O[C@H]1CN(C)C(=O)Nc1ccccc1	9	9
Cc1cccc(-c2ccc([C@@H]3[C@H](CO)N4CCCCN(S(=O)(=O)c5cn(C)cn5)C[C@@H]34)cc2)c1	?	.
Cc1ccc(S(=O)(=O)Nc2ccc3c(c2)C(=O)N([C@H](C)CO)C[C@@H](C)[C@H](CN(C)S(=O)(=O)c2ccc(Cl)cc2)O3)cc1	-19	-14
C[C@@H]1CN([C@@H](C)CO)C(=O)Cc2cc(NC(=O)Nc3ccc4c(c3)OCO4)ccc2O[C@H]1CN(C)S(=O)(=O)c1ccc(F)cc1	-4	-2
COc1cccc(-c2cnc3c(c2)C(=O)N([C@H](C)CO)C[C@@H](C)[C@H](CN(C)Cc2ccc(F)cc2)O3)c1	-9	-7
C[C@H]1CCCCO[C@H](CN(C)Cc2ccc(C(=O)O)cc2)[C@@H](C)CN([C@@H](C)CO)C(=O)c2cc(NC(=O)NC3CCCCC3)ccc2O1	19	13
Cc1noc(C)c1NC(=O)Nc1ccc2c(c1)C(=O)N([C@@H](C)CO)C[C@H](C)[C@H](CN(C)Cc1ccc(C(F)(F)F)cc1)O2	1	4
CO[C@@H]1CN(C)C(=O)c2cc(NC(=O)Nc3ccccc3F)ccc2OC[C@H](C)N(C)C[C@H]1C	-3	-6
CCCC#Cc1cnc2c(c1)C(=O)N([C@@H](C)CO)C[C@@H](C)[C@@H](CN(C)Cc1cccnc1)O2	-2	-7
C[C@@H]1CN([C@@H](C)CO)C(=O)c2cccc(NC(=O)Nc3ccc(C(F)(F)F)cc3)c2O[C@@H]1CN(C)CC1CCCCC1	?	.

Of the compounds above, 2 contain a cyano group:
SMILES	Vaccinia stage	Vaccinia stage Venus
CO[C@H]1CN(C)C(=O)c2cccc(C#N)c2OCC[C@@H]2CC[C@@H](OC)[C@H](CN(C)C(=O)[C@@H]1C)O2	12	7
N#C[C@@H]1[C@@H](c2ccc(-c3cccc(F)c3)cc2)[C@@H](CO)N1C(=O)NC1CCCCC1	?	.

Taken from above.
In Vaccinia stage Venus, C[C@@H]1CN([C@@H](C)CO)C(=O)Cc2cc(NC(=O)Nc3ccc4c(c3)OCO4)ccc2O[C@H]1CN(C)S(=O)(=O)c1ccc(F)cc1 is entered as -2
In Vaccinia stage Venus, C[C@H]1CCCCO[C@H](CN(C)Cc2ccc(C(=O)O)cc2)[C@@H](C)CN([C@@H](C)CO)C(=O)c2cc(NC(=O)NC3CCCCC3)ccc2O1 is entered as 13
In Vaccinia stage Venus, COc1cccc(-c2cnc3c(c2)C(=O)N([C@H](C)CO)C[C@@H](C)[C@H](CN(C)Cc2ccc(F)cc2)O3)c1 is entered as -7
In Vaccinia stage Venus, Cc1ccc(S(=O)(=O)Nc2ccc3c(c2)C(=O)N([C@H](C)CO)C[C@H](C)[C@H](CN(C)C(=O)Nc2ccc(C(F)(F)F)cc2)O3)cc1 is entered as -5
In Vaccinia stage, CO[C@@H]1CN(C)C(=O)c2cc(NC(=O)Nc3ccccc3F)ccc2OC[C@H](C)N(C)C[C@H]1C is entered as -3

Source: PubChem
